Tg IFNy HTS: inhibitors of Toxoplasma gondii growth with IFN-gamma; Toxoplasma gondii growth in IFN-gamma-treated host cells; hits give low values; reference of the scale not given here; activity change, negative = inhibition, %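 (about 20 µM by stock and volumes)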; 3.8% of 69,000 active; AID 1259416;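 active = below -70%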;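 note: host cells are HeLa cells infected with Toxoplasma gondii; parasite growth read as luciferase light; one replicate is shown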
* hit, by the source's call. These rows are one share of the data; the hit share may differ from the screen's.

| SMILES | Tg IFNy HTS |
| --- | --- |
| Cc1ccc(NC(=O)C2CCCCC2C(=O)O)cc1Cl (stereo unspecified) | -4 |
| Cc1ccccc1S(=O)(=O)N1CC[C@@H]2[C@H]1c1cc(-c3ccc(F)cc3)ccc1N[C@@H]2CO | -13 |
| COCC(=O)NCc1cc(=O)n2c(n1)CN(CC1CC1)CCC2 | 2 |
| COc1ncccc1NC(=O)c1cccc(CN2[C@@H]3CC[C@H]2CC(O)C3)c1 (stereo partly specified) | -1 |
| COc1ccc(S(=O)(=O)NCCc2sc(-c3cccc(F)c3)nc2C)cc1F | 37 |
| CC(=O)NCCc1c(Cc2ccccc2)[nH]c2ccccc12 | 22 |
| Cc1cc(=O)cc(C)n1NC(=O)c1cccnc1 | -26 |
| CCOc1ccc(-n2c(SCC(=O)NCc3ccco3)nnc2-c2cccnc2)cc1 | -6 |
| COCCN1C(=O)CCc2cc(NC(=O)Cc3ccccc3Cl)ccc21 | 5 |
| COCC(=O)N1C[C@H]2[C@@H](c3ccccc31)[C@@H](CO)N2C(=O)c1ccccc1F | 7 |
| Cc1cc(Cc2ccc(Cl)cc2)cc(C2CCN(CC(=O)NCc3ccccn3)CC2)n1 | -52 |
| CN(C[C@@H]1[C@@H](c2ccccc2)[C@H](CO)N1Cc1ccccn1)S(C)(=O)=O | 13 |
| CNc1ncc(CN(C)c2nccc(CCC(F)(F)F)n2)cn1 | -3 |
| Cc1sc2ncnc(NCc3ccco3)c2c1C | -3 |
| CCc1ccc(S(=O)(=O)N2CCC3(CCCN(Cc4cccc(C)n4)C3)C2)cc1 (stereo unspecified) | -23 |
| Cn1nc(C(=O)N(Cc2ccccn2)Cc2ccco2)c2c1CCCC2 | 17 |
| O=C(c1cscn1)N1C[C@@H]2COC[C@]2(COCC2CC2)C1 | -51 |
| CCOc1ccc(NC(=O)c2c(O)c3ccccc3n(-c3ccccc3)c2=O)cc1 | 22 |
| CCCCNc1nc(-c2ccc(Cl)cc2)nc2ccccc12 | -57 |
| COc1cc(N2CC[C@]3(CCC[C@@H](CNS(C)(=O)=O)O3)C2)ncn1 | -17 |
| CCN1CCN(CC2(O)CCCN(CCCc3ccccc3)C2=O)CC1 (stereo unspecified) | 0 |
| O=C1CCC(C(=O)Nc2ccc(Oc3ccc(F)cc3)cc2)NC(=O)N1 (stereo unspecified) | -6 |
| COC1CC2(CCN(Cc3nccn3C)CC2)C1 | 42 |
| Cc1ccc(CN2C[C@@H](C(=O)Nc3cccnc3)C[C@@H]3OCC[C@@H]32)o1 | -6 |
| O=c1c2ccccc2sc2ccc(NS(=O)(=O)c3ccc4c(c3)OCCO4)cc12 | 28 |
| CCC(C)NC(=O)Cn1c(=O)c(S(=O)(=O)c2ccccc2)cc2ccccc21 (stereo unspecified) | -19 |
| Cc1nn(CC(=O)N2CCC(C)CC2)c(=O)c2nc(-c3ccccc3)sc12 | -14 |
| Cc1ccc(OCCCCn2ccnc2C)c(C)c1 | -31 |
| C[C@@H]1CN([C@@H](C)CO)S(=O)(=O)c2ccc(-c3ccncc3)cc2O[C@H]1CN(C)S(C)(=O)=O | 72 |
| Cc1noc(C)c1C(=O)N(C)C[C@@H]1OCc2ccccc2-c2ccccc2C(=O)N([C@@H](C)CO)C[C@H]1C | -15 |

Single values from above:
Under Tg IFNy HTS, C[C@@H]1CN([C@@H](C)CO)S(=O)(=O)c2ccc(-c3ccncc3)cc2O[C@H]1CN(C)S(C)(=O)=O is entered as 72
Under Tg IFNy HTS, CCc1ccc(S(=O)(=O)N2CCC3(CCCN(Cc4cccc(C)n4)C3)C2)cc1 (stereo unspecified) is entered as -23

Continuation.
| SMILES | Tg IFNy HTS |
| --- | --- |
| Cc1nc(-c2ccc(F)cc2)sc1CCNC(=O)C(=O)Nc1ccc2c(c1)OCCO2 | -40 |
| CC(C)NC(=O)C1(c2ccccc2)CCOCC1 | -23 |
| O=C(Cn1nnc2ccccc21)NCCSCc1ccco1 | 28 |
| Cc1ccc(S(=O)(=O)N2CCN(S(C)(=O)=O)C2C(C)C)cc1 (stereo unspecified) | -27 |
| CCOc1ccc2[nH]c(=O)c(CN3CCCCC3c3nc(C)no3)cc2c1 (stereo unspecified) | 2 |
| CCN(Cc1nc(C)no1)C(=O)c1ccc(CNc2ccc(C)cc2)cc1 | 11 |
| COc1ccc(NC(=O)Cn2c(=O)cc(C(=O)N3CCCCC3)c3ccccc32)cc1 | 14 |
| O=C(CCC1N=C2c3ccccc3N=C(SCc3cc(=O)n4ccccc4n3)N2C1=O)NCc1ccc2c(c1)OCO2 (stereo unspecified) | 9 |
| CC1CCCCN1CCN(C)Cc1ncc[nH]1 (stereo unspecified) | -4 |
| COc1ccc(S(=O)(=O)Nc2ccc3c(c2)CC(=O)N([C@@H](C)CO)C[C@@H](C)[C@H](CN(C)C(=O)Nc2c(C)noc2C)O3)cc1 | 25 |
| CO[C@H]1CCN(C(=O)NCc2cccc(F)c2)[C@H]1Cc1cnn(C)c1 | 3 |
| C[C@@H]1COCc2cnnn2CC[C@@H](Cc2ccccc2)C(=O)N1 | 7 |
| COc1cccc(NC(=O)C(=O)NCCc2sc(-c3cccc(F)c3)nc2C)c1 | -38 |
| COc1ccccc1N1CCN(C(=O)c2cc(C(C)(C)C)oc2C)CC1 | -108* |
| CCn1cc(SCC(=O)N2CCOC(C(F)(F)F)C2)c2ccccc21 (stereo unspecified) | 1 |
| O=C(O)CCCN1C(=O)c2cccc3cccc(c23)C1=O | 10 |
| N#Cc1cnc(N(Cc2ccccc2)Cc2ccccc2)nc1N | -43 |
| Cc1cc(C(=O)N2C[C@H]3C[C@@H]4[C@@](C2)(CN(Cc2cccc(Cl)c2)S4(=O)=O)O3)no1 | 37 |
| CN(C)C(=O)N1CCC2(C1)c1ccccc1S(=O)(=O)N2CC1CC1 (stereo unspecified) | 1 |
| CC1CCCN(C(=O)c2cc3cccnc3n(Cc3ccc(F)cc3)c2=O)C1 (stereo unspecified) | 10 |
| COc1ccc2c3c(n(C)c2c1)[C@H](CO)N(C)CC31CN(S(=O)(=O)c2cccc(C)c2)C1 | -37 |
| COCCN(CCOC)C(=O)c1cc2c(c3ccccc3n2CC2CC2)n1-c1ncccn1 | -21 |
| C[C@H]1CN([C@@H](C)CO)C(=O)c2cc(NC(=O)C3CC3)ccc2O[C@H]1CN(C)S(=O)(=O)c1ccccc1 | -7 |
| O=C(Cn1ncc2c(N3CCOCC3)ncnc21)Nc1cccc(C(F)(F)F)c1 | -39 |
| COc1ccccc1-c1cc(C(=O)NCCn2nc(C)nc2C)no1 | -9 |
| COc1ccc(-c2nc(Cn3nnc(-c4nc(-c5ccccc5OC)no4)c3C)c(C)o2)cc1 | 8 |
| Cc1ccc2c(c1)NC1(CCN(S(=O)(=O)c3ccc(NC(=O)CC(C)C)cc3)CC1)c1cccn1-2 | 26 |
| COc1cccc(-c2nc(CSc3nc4c(=O)[nH]c(C)nc4n3C)c(C)o2)c1OC | -1 |
| CN(C)CCC1CN(C(=O)CCCc2cn[nH]c2)CCO1 (stereo unspecified) | 0 |
| COc1cc(OC)cc(-c2nnc(NC(=O)c3cc(C)nc4c3c(C)nn4C)s2)c1 | -1 |
| CC(=O)c1sc(Nc2nc(NC(C)C)nc(NC(C)C)n2)nc1C | -38 |
| c1cc(CN(Cc2nc(-c3ccc4c(c3)OCO4)no2)CC2CCCO2)ccn1 (stereo unspecified) | -8 |
| CCOC(=O)c1nc(Nc2ccc(F)c(Cl)c2)c2ccccc2n1 | -51 |
| COCCN1C(=O)CCC12CCCN(Cc1cnn(C)c1)CC2 (stereo unspecified) | 0 |
| COc1ccc(-n2c(=O)c(C(=O)NCc3cc(F)cc(F)c3)c(O)c3cccnc32)cc1 | -34 |
| CC(=O)N1CCC(C(=O)NCc2ccccc2)(N(C(=O)c2ccc(C)cc2)c2ccc(Cl)cc2)CC1 | -44 |
| O=C(C[C@H]1CC[C@H]2NC[C@H](O)COC[C@@H]2O1)Nc1nccs1 | 14 |
| O=C(Cn1ncc2c(N3CCCC3)ncnc21)Nc1cccc(C(F)(F)F)c1 | -66 |
| Cc1nc(C)c(-c2ccccc2CO)s1 | 2 |
| C/C=C/c1ccc([C@H]2[C@H](CO)N[C@H]2CN(CC(C)C)C(=O)c2ccccn2)cc1 | -28 |
| COc1ccc(NC(=O)N(C)C[C@@H]2OCc3ccccc3-c3ccccc3C(=O)N([C@@H](C)CO)C[C@@H]2C)c(OC)c1 | -40 |
| OC1(C#Cc2ccccc2)CCN(Cc2ccccc2)CC1 | -33 |
| CCCN1C(=O)CCc2cc(NS(=O)(=O)c3ccccc3C(F)(F)F)ccc21 | 6 |
| CCC(=O)N1[C@@H]2c3cccc(=O)n3C[C@H]1[C@H](CO)[C@H]2C(=O)NC1Cc2ccccc2C1 | 7 |
| COc1cccc(NC(=O)c2nc3c(s2)CCN(c2ncccn2)CC3)c1 | -43 |
| O=C(NCc1ccc(C(F)(F)F)cc1)c1cc(Cl)cc(Cl)c1 | -62 |
| O=C(c1ccoc1)N1CCC2(CC1)Nc1cccnc1NC2=NCc1ccccc1 | 48 |
| C/C=C/c1ccc([C@H]2[C@@H](CO)N3CCCCN(CCC(F)(F)F)C[C@@H]23)cc1 | -20 |
| O=C(CN1CCOCC1)N1CC[C@@H]2[C@H](CO)Nc3ccc(Br)cc3[C@@H]21 | 26 |
| CC1CN(c2ccccc2O)CC(C)O1 (stereo unspecified) | -17 |
| CCOC(=O)c1c(/C=C/c2ccccc2)nn(-c2ccccc2)c1C | -60 |
| CC(C)N1[C@H](CN2CCCC2)C[C@H]2CN(Cc3ccco3)CC[C@H]21 | 1 |
| CCCS(=O)(=O)NCCc1csc(-c2ccc(Cl)cc2)n1 | -23 |
| COc1ccc2c(c1)CC(NCCc1csc(-c3cccnc3)n1)CC2 (stereo unspecified) | 1 |
| O=C(c1ccccn1)N1CC2(C1)[C@H](c1ccccc1)[C@@H](CO)N2C(=O)C1CCCCC1 | -31 |
| CCOC(=O)c1cccnc1-c1ccc(OC)cc1OC | 11 |
| C[C@@H]1CN([C@@H](C)CO)C(=O)c2c(c3ccccc3n2C)-c2ccccc2CO[C@@H]1CN(C)C(=O)Nc1ccccc1C(F)(F)F | -33 |
| COC(=O)C1(Cc2ccccc2Br)CCOCC1 | 11 |
| CN(Cc1cccnc1)C1CCN(C(=O)c2ccsc2)C(C(=O)O)C1 (stereo unspecified) | 1 |
| Cc1cc(COc2ccccc2)oc1C(=O)N1CCC(n2ccnc2)C1 (stereo unspecified) | -34 |

(cont.)
| SMILES | Tg IFNy HTS |
| --- | --- |
| CCN1CCN(C)C(=O)C12CCN(C(=O)Cc1ccsc1)CC2 | -6 |
| CN(C)C[C@@H]1CC2CN(Cc3cccs3)CCC2N1C (stereo partly specified) | 6 |
| O=C(NCc1ccc2c(c1)OCO2)c1cncc(NS(=O)(=O)c2ccccc2)c1 | 34 |
| CCOc1ccnc(N(C)Cc2ncc(C)[nH]2)n1 | 3 |
| CN(C)C(C(=O)O)c1ccc(Cl)cc1 (stereo unspecified) | 12 |
| CC[C@@H](Cn1ncc2ccccc2c1=O)NC(=O)C(C)c1nn(CC)c(=O)c2ccccc12 (stereo partly specified) | 62 |
| c1ccc(-c2cc(CN3CCCC3c3nc4ccccc4s3)on2)nc1 (stereo unspecified) | -12 |
| C[C@@H]1CN([C@H](C)CO)C(=O)Cc2cc(NC(=O)CCCCCC(=O)Nc3ccccc3N)ccc2O[C@H]1CN(C)S(=O)(=O)c1cccs1 | 2 |
| O=C1CCC2(CCN(C(=O)C3CC3)CC2)CN1CC1CCOCC1 | -8 |
| Cc1ccc(S(=O)(=O)N2CC3CCC2C3Oc2ccccn2)cc1 (stereo unspecified) | -36 |
| Cc1ccc2c(c1C)-n1cccc1C1(CCN(S(=O)(=O)c3cccs3)CC1)N2 | 33 |
| O=c1[nH]nc(CCn2ccnc2-c2ccc(-c3ccccc3Cl)o2)[nH]1 | 1 |
| Cc1ccc2[nH]c(=O)c(-c3nc(-c4ccc(OC(C)C)cc4)no3)c(O)c2c1 | 60 |
| Cc1cccc(-n2c(-c3ccco3)nn(CC(=O)N3CCCCCC3)c2=O)n1 | -8 |
| COC(=O)Nc1nc2ccc(C(=O)c3cccs3)cc2[nH]1 | -87* |
| COc1ccc(C)cc1-n1cnnc1CCc1c(C)n[nH]c1C | 2 |
| CCn1cc2c(n1)C(COC)CN(C(=O)c1cccc(C)n1)C2 (stereo unspecified) | 0 |
| COc1ccc(Nc2nc(-c3nnc(-c4ccc(Cl)cc4)o3)nc3ccccc23)cc1OC | 180 |
| CCOC(=O)c1c(NC(=O)c2cc(-c3ccccc3)nc3ccc(C)cc23)sc(C)c1C | 22 |
| COc1ccc2c3c([nH]c2c1)[C@@H](CO)N(S(C)(=O)=O)CC31CN(C(=O)c2ccccc2)C1 | -38 |
| Cc1ccc(-c2nc(C)c(CCNC(=O)C(=O)Nc3cccc(Cl)c3)s2)cc1 | 70 |
| CN1C(=O)C[C@@H](C(=O)N[C@@H](Cc2cnc[nH]2)C(=O)N2CCC[C@H]2C(N)=O)NC1=O | 18 |
| COc1ccccc1CN(CCN(C)C)C(=O)C1CC(=O)Nc2ccccc21 (stereo unspecified) | 21 |
| NC1CCc2c(ccc(=O)n2CC2CC2)C1 (stereo unspecified) | -20 |
| O=S(=O)(c1cccc(F)c1)N1CCn2nnc(COc3cccnc3)c2C1 | 1 |
| Cc1ccc(-c2nc(C)c(CCNC(=O)C(=O)Nc3cccc(F)c3)s2)cc1 | 17 |
| Cc1ccc(C(=O)Cn2c(=O)n(C(C)C)c3nc(-c4ccc(F)cc4)nc(C(N)=O)c32)cc1 | 13 |
| CC1=C(C(=O)NCCCN2CC(C)CC(C)C2)C2(CCCCC2)OC1=O (stereo unspecified) | -80* |
| Cc1ccc(C(=O)N(C/C=C/c2ccccc2)CCO)c(F)c1F | -8 |
| COc1ccc2c3c(n(C)c2c1)[C@H](CO)N(C(=O)Nc1ccc(F)cc1)CC31CN(Cc2ccccc2F)C1 | 2 |
| Cc1ccc(CNc2cccc(C(=O)NCCN(C)C)c2)cc1 | 8 |

A second format for part of the listing above:
Molecule: C[C@@H]1COCc2cnnn2CC[C@@H](Cc2ccccc2)C(=O)N1
  Tg IFNy HTS: 7
Molecule: COc1cccc(NC(=O)C(=O)NCCc2sc(-c3cccc(F)c3)nc2C)c1
  Tg IFNy HTS: -38
Molecule: COc1ccccc1N1CCN(C(=O)c2cc(C(C)(C)C)oc2C)CC1
  Tg IFNy HTS: -108*
Molecule: CCn1cc(SCC(=O)N2CCOC(C(F)(F)F)C2)c2ccccc21 (stereo unspecified)
  Tg IFNy HTS: 1
